High-throughput results from PubChem BioAssay.
Yeast UUG start = alters start codon recognition fidelity in yeast. activity score, % at 18.7 µM. S. cerevisiae UUG-firefly luciferase reporter, luminescence/redox ratio. AID 602363. hit rate 0.13% among 350,000;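 active means replicate mean at a twofold rise or more, about +100% in these data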;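 further: firefly luciferase made from a UUG start codon reports start codon fidelity; reporter light over untreated wells divided by growth signal over untreated wells; some hits fall short of that in this replicate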
PABP FP inh = PABP-poly(A) binding inhibition; P11940; PABP-poly(A) RNA binding, fluorescence polarization; inhibition, % at 35 µM; hit rate 1% among 290,000; AID 2014;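 active means 50% or more with normal probe brightness, or confirmed in later tests; inconclusive means above 50% with abnormal brightness, or retests that disagree; inactive means below 50% or failed in later tests; about a fifth of its hits are not listed in these tables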;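 further: calls also rest on retests at 20 µM and on dose response follow-up; controls were probe without protein and protein plus probe with vehicle; some compounds called inactive have numbers as strong as hits; many hits fall short of the cut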
Target sequence (P11940 whole entry, looked up): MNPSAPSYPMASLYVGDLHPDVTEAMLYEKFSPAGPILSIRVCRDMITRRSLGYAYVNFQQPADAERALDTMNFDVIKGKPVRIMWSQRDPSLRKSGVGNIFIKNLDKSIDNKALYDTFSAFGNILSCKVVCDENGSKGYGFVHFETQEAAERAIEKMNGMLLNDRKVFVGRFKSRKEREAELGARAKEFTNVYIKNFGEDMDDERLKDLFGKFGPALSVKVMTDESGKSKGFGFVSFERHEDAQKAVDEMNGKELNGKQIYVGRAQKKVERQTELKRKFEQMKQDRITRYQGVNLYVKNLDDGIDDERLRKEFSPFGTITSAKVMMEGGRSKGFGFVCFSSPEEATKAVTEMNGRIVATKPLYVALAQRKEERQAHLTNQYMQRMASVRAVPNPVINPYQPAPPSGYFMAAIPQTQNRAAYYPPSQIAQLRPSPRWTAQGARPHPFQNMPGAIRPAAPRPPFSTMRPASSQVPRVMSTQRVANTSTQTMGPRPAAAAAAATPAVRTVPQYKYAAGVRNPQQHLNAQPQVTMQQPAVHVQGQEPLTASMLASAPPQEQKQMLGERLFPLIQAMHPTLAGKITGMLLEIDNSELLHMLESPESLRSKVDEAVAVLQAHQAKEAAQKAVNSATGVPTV
Rce1 inh = yeast Ras-converting enzyme inhibition; AID 2563; yeast membranes, quenched prenylated peptide cleavage fluorescence; hit rate 0.27% among 290,000; calls only;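 active means fall in fluorescence gain of 50% or more versus controls, with final raw signal at or below 3038400; inconclusive means same 50% fall but final raw signal above 3038400; inactive means fall in fluorescence gain under 50%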;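 further: plate controls were neutral control wells for no effect and wells lacking membranes for full effect; tested at 10 µM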
CSC inhib = cancer stem cell inhibition; hit rate 1.1% among 300,000; inhibition, % at 7.5 µM; AID 2717; cancer stem cell-like cells viability, luminescence;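 active means mean at 75% or more and at least half the replicates too; inconclusive means mean and replicates disagree; tested in HMLE shEcad cells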;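 further: 0% = median of negative and 100% = median of positive control wells; the first replicate is given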
eIF4H FP inh = inhibitors of RNA binding by human eIF4H; Q15056; inhibition, % at 35 µM; hit rate 0.94% among 290,000; eIF4H fluorescence polarization binding assay;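 active means 50% or more with normal probe brightness, or confirmed in later tests; inconclusive means above 50% with abnormal brightness, or retests that disagree; inactive means below 50% or failed in later tests; about a fifth of its hits are not listed in these tables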;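 further: calls also rest on retests at 20 µM and on dose response follow-up; 0% = protein and probe with vehicle and 100% = probe without protein; strong numbers were not always called active; many hits fall short of the cut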
Env fusion inh = HIV envelope-mediated fusion inhibition. HeLa-JRFL Env/CEM21 cell fusion, luciferase. inhibition, % at 12.3 µM. hit rate 1.1% among 360,000. AID 651610;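 active means mean replicate inhibition score of at least 50 and every replicate individually at or above 50; inconclusive means only one of the two criteria met; inactive means mean below 50 and not all replicates reaching 50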;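 further: 0% = plate neutral controls and 100% = maraviroc near 300 nM; one replicate is shown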
MT1-MMP act inh = blocks activation of human MT1-MMP; P50281; HT1080 RFP-PRO-GFP cells, GFP/RFP ratio fluorescence, overnight; percent of plate control window, DMSO zero; GFP/RFP ratio change, % at 20 µM; hit rate 0.061% among 360,000;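 active means GFP/RFP ratio change of at least 30% with cell ATP level not reduced by more than half and red fluorescence within 50% of control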; further: strong numbers were not always called active
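Material: RFP-PRO-GFP reporter HT1080 cells. Dosing: single-point 20 µM compound, 1% DMSO. Controls: DMSO and RFP-L50D-GFP cell wells. Timing: cells overnight before dosing, compound overnight, 37 °C, 5% CO2. Measure: GFP/RFP fluorescence ratio.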
MT1-MMP act inh RFP = further read-out of MT1-MMP act inh, marked with its call; RFP signal change, %; measured here: RFP expression control read;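 0 = vehicle wells; hits needed this value within 50% of zero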
Numbers without * were called inactive; i = inactive; u = inconclusive; x = not tested or not shown. A portion of the library; the hit share may differ from the screen's.

SMILES	Yeast UUG start	PABP FP inh	Rce1 inh	CSC inhib	eIF4H FP inh	Env fusion inh	MT1-MMP act inh	MT1-MMP act inh RFP
COc1cccc(N2CCN(S(=O)(=O)c3ccc(-c4coc(C)n4)cc3)CC2)c1	-9	15	i	-11	1	9	0	-11
CCOc1ccc(C(=O)NCC2OCCc3ccccc32)cc1 (configuration not stated)	-15	-5	i	4	-8	x	5	-5
COc1cc(C(=O)Nc2ccc([N+](=O)[O-])cn2)cc(OC)c1OC	-24	-6	i	x	-3	x	x	x
CC(=O)c1cnn(-c2ccccc2)c1C	x	2	i	x	-3	-1	-4	-1
CCOc1cc(/C=C/C(=O)O)ccc1OCCOc1ccc(F)cc1	-6	-3	i	-8	7	-4	3	-1
COCCNC(=O)C/C(C)=N/NC(=O)C(=O)NC1CCCCC1	x	-1	i	x	1	-1	-2	4
O=C(NCCOc1nc(N2CCCCC2)nc(N2CCOCC2)n1)Nc1ccccc1	-2	6	i	-1	1	x	6	-2
O=C(NCC1CCCO1)c1onc(CSc2ccccc2F)c1C(=O)O (configuration not stated)	-9	2	i	-4	-4	-15	-1	4
C=CCN(Cc1nc(-c2cc(OC)c3c(c2)OCO3)oc1C)C1CCS(=O)(=O)C1 (configuration not stated)	x	1	x	-5	-14	-2	-1	-1
Cc1nnsc1C(=O)N1CCN(c2cc(C(F)(F)F)ccn2)CC1	4	3	i	10	-4	-2	3	2
COc1ccc(OC)c(C(=O)N2CCC(n3nccc3NC(=O)CC(C)C)CC2)c1	-12	11	i	14	-3	-2	-6	0
CNC(=S)N1CCc2cc(OC)c(OC)cc2C1COc1ccc(F)cc1 (configuration not stated)	x	-1	i	-13	-7	-2	1	0
CCCCCc1nc2c(c(=O)c3ccccc3n2C)c(=O)n1Cc1ccc(OC)cc1	x	-4	i	9	1	13	-1	3
COc1cc(-c2nn3c(-c4ccccn4)nnc3s2)cc(OC)c1OC	x	-7	i	x	-11	x	x	x
C=CCNC(=O)N1CCC(n2nccc2NC(=O)CCCc2ccccc2)CC1	-16	x	i	-14	x	-3	1	3
CCCCOc1ccc(Nc2cc(Cl)ccc2C(=O)O)cn1	21	32	i	21	29	63*	0	2
Cc1ccc(N(CC2CO2)S(=O)(=O)c2ccc([N+](=O)[O-])cc2)cc1 (configuration not stated)	-8	-1	i	x	-9	0	-6	-3
CCC1(C(=O)c2ccccc2)C(c2cccc([N+](=O)[O-])c2)C1(C(=O)OC)C(=O)OC (configuration not stated)	x	-3	i	-2	-8	-1	-8	-10
O=c1c2cc3c(cc2[nH]c(=S)n1C1CCN(Cc2ccccc2)CC1)OCO3	-4	1	i	-9	-2	32	6	2
Cc1ccc(N=Nc2c(C)[nH]n(-c3ccccc3)c2=O)c(C)c1	x	2	i	11	7	20	5	4
CC(C)(C(=O)N1CCC1(C)C(=O)NS(=O)(=O)c1cccc(Cl)c1)c1ccccc1 (configuration not stated)	-9	x	x	x	x	-15	-9	0
O=C1C=C(O)c2cccc3cccc1c23	-19	58*	i	4	58*	-29	-17	-2
CC(C)[C@@H](N)C(=O)N/N=C/c1ccc2nccnc2c1	x	10	i	-11	-7	10	-1	1
COc1ccc(CC(=O)Nc2ccccc2C(=O)NCCc2ccccc2)cc1	4	-1	x	9	6	-17	1	-14
O=C(O)c1cc(C2CC2)nn1-c1ccccc1	-14	-7	i	8	0	-28	-1	2

Only Env fusion inh, Yeast UUG start and MT1-MMP act inh RFP, for six of the compounds above:
Structure | Env fusion inh | Yeast UUG start | MT1-MMP act inh RFP
Cc1ccc(N=Nc2c(C)[nH]n(-c3ccccc3)c2=O)c(C)c1 | 20 | x | 4
CC(C)(C(=O)N1CCC1(C)C(=O)NS(=O)(=O)c1cccc(Cl)c1)c1ccccc1 (configuration not stated) | -15 | -9 | 0
O=C1C=C(O)c2cccc3cccc1c23 | -29 | -19 | -2
CC(C)[C@@H](N)C(=O)N/N=C/c1ccc2nccnc2c1 | 10 | x | 1
COc1ccc(CC(=O)Nc2ccccc2C(=O)NCCc2ccccc2)cc1 | -17 | 4 | -14
O=C(O)c1cc(C2CC2)nn1-c1ccccc1 | -28 | -14 | 2

(continued)
SMILES	Yeast UUG start	PABP FP inh	Rce1 inh	CSC inhib	eIF4H FP inh	Env fusion inh	MT1-MMP act inh	MT1-MMP act inh RFP
CCCC(c1nnnn1CCOC)N(Cc1cc2cc(C)c(C)cc2[nH]c1=O)CC1CCCO1 (configuration not stated)	-1	5	i	9	-5	x	-6	1
Cc1ccc(-c2ccc(C(=O)O)c(C)n2)cc1	-16	6	i	4	0	x	-8	-1
Cn1nnnc1SCCNC(=O)C1CCC(=O)N(Cc2ccc(Cl)cc2)C1 (configuration not stated)	-2	3	i	-10	-9	x	3	-1
CCC(=O)N1CCN(c2ccc(Cl)cc2NC(=O)Cc2ccc(Cl)cc2)CC1	-15	-2	i	-5	5	14	-9	-12
CCN(CC)C(=O)CSc1nnc(-c2c[nH]c3ccccc23)o1	-23	2	i	4	-2	-21	-6	-4
CCOC(=O)Cc1csc(SCC(=O)Nc2cccc(Cl)c2)n1	-5	-1	i	-6	-2	x	4	7
CC(NC(=O)COC(=O)c1cc(Cl)nc(Cl)c1)c1ccccc1 (configuration not stated)	-10	-8	i	-12	-7	7	1	6
Cc1cc(C)cc(N(C(=O)Cc2cccs2)C(C(=O)NC2CCCC2)c2ccc(C)o2)c1 (configuration not stated)	-6	9	x	0	-1	x	-23	-16
CCOc1ccc(CNCc2cccnc2)cc1	-22	-2	i	-2	-7	-33	7	9
COc1ccc([C@H]2[C@@H]3C=CCC[C@@]3(C)C(=O)N2Cc2ccccc2)cc1Cl	-7	-4	i	30	1	49	-6	-10
CCOC(=O)c1c(C)[nH]c(C(=O)N(C)CC(=O)Nc2ccc(OCC)c(OCC)c2)c1C	-1	x	x	x	x	5	2	3
CCc1ccccc1NC(=O)CN(C)C(=O)CN1C(=O)NC2(CCCCCC2)C1=O	-26	4	i	-3	3	x	18	-1
Cc1ccc(C(=O)NCCc2nnc3ccc(SCC(=O)NCc4ccc(F)cc4)nn23)cc1	-8	2	i	3	-14	2	-2	-1
O=C(c1ccc(C23CC4CC(CC(C4)C2)C3)o1)N1CCOCC1	5	-12	i	8	1	x	-5	-4
CS(=O)(=O)N(CC(=O)N1CCN(c2cccc(Cl)c2)CC1)c1ccccc1	0	5	i	3	10	-7	11	-1
CN(Cc1nc(-c2ccc(Cl)cc2)no1)C(=O)CCN1C(=O)[C@H]2CC=CC[C@H]2C1=O	-12	-2	i	-19	-6	18	-1	-10
CC(C)(C)OC(=O)N1CSC[C@H]1C(=O)NC[C@H](CC(=O)O)c1ccc(Cl)cc1	-12	5	i	9	-4	-9	4	6
CCOC(=O)C1=C(COC(=O)CSc2ccc(C)cc2)NC(=O)NC1C (configuration not stated)	x	x	x	3	x	1	0	6
Cc1ccc(N2CC(C(=O)NCc3n[nH]c(=O)c4ccccc34)CC2=O)cc1C (configuration not stated)	-3	x	i	-18	x	-8	0	-2
O=c1[nH]c(=O)n(C2OC(CO)C(O)C2O)cc1N1CCOCC1 (configuration not stated)	-12	x	x	x	x	7	-3	5
CC1(C(=O)NS(=O)(=O)c2ccc(Cl)s2)CCN1C(=O)C1(c2ccc(Cl)cc2)CCC1 (configuration not stated)	10	x	x	x	x	i	-7	-3
CN(C)S(=O)(=O)c1cccc(NC(=O)c2cc([N+](=O)[O-])ccc2N2CCCCC2)c1	-1	x	x	-2	x	3	1	1
COc1ccc(N(CC(=O)NCc2ccc(Cl)cc2)S(=O)(=O)c2ccccc2[N+](=O)[O-])c(OC)c1	x	-4	i	-8	3	-1	-5	-8
CC(Sc1nc2ccccc2n1C)C(=O)NC(c1ccccc1)c1ccccc1 (configuration not stated)	x	9	i	1	2	u	-8	-8
OC(c1ccccc1)c1ncc(-c2ccc(C(F)(F)F)cc2)[nH]1 (configuration not stated)	-14	x	x	x	x	5	4	-1
Other records.
SMILES	Yeast UUG start	PABP FP inh	Rce1 inh	CSC inhib	eIF4H FP inh	Env fusion inh	MT1-MMP act inh	MT1-MMP act inh RFP
CCOC(=O)C1=C(N)Oc2c(oc(CO)cc2=O)C1c1ccc(F)c(F)c1 (configuration not stated)	-12	1	i	-4	0	7	2	-1
Cn1c2ccccc2c(=O)c2ccc(NCCc3cccs3)cc21	-12	x	x	53	x	-314	-35	4
CCc1cc2c(SCC(=O)Nc3ncc(Cl)c(C)c3Cl)ncnc2s1	-13	-10	i	-10	-12	13	-8	-1
O=C(NC1=NCCS1)c1ccccc1F	-8	x	i	3	x	1	1	-2
COc1cccc(OCCCN2CCCCCC2)c1	x	-15	i	5	5	-9	2	0
COc1ccc2c(c1)cc1c(=O)n(CC(=O)NCCCN3CCOCC3)nc(C)n12	-10	-4	i	11	-6	0	1	2
CCCn1nnc(NC(=O)COc2cc(C)ccc2C(C)C)n1	-3	-7	i	-8	3	10	-4	-4
CCN(C(=O)COC(=O)c1c(C)nsc1NC)c1ccccc1	-14	x	x	-11	x	0	-1	-8
CCC(=O)N1CCN(c2ccc(NC(=O)COc3ccc(C)cc3C)cc2)CC1	-3	5	x	22	-3	13	0	-15
O=C(COC(=O)c1c2c(nc3ccccc13)/C(=C/c1cccc([N+](=O)[O-])c1)CCC2)NC1CCS(=O)(=O)C1 (configuration not stated)	x	-10	i	67	-4	-27	-1	-6
O=C(c1ccccn1)N(Cc1ccco1)C1(C(=O)NC2CCCC2)CCCCC1	x	15	i	0	12	20	3	8
CCCCN(C(=O)c1ccc2c(c1)OCO2)c1c(N)n(CCCC)c(=O)[nH]c1=O	-15	x	i	2	x	x	3	1
Cc1c(CCOC(=O)CC23CC4CC(CC(C4)C2)C3)sc[n+]1Cc1ccccc1	4	8	i	45	2	28	-12	-12
Cc1ccccc1C(=O)NCC(=O)OC(C)C(=O)NC(C)CCc1ccccc1 (configuration not stated)	-6	x	x	x	x	3	-1	6
COc1ccc(-c2cncnc2-c2ccc(OC)cc2O)cc1	-18	15	i	-10	11	u	-18	-15
CC(C)CC1NC(=O)N(CC(=O)NC2CCCc3ccccc32)C1=O (configuration not stated)	x	-8	x	-6	10	-18	13	0
COc1ccccc1N1CCN(C(=O)CNC(=O)c2ccc(Cl)cc2Cl)CC1	-3	0	i	-7	-12	8	4	-10
CCN(CC)S(=O)(=O)c1ccc(N(C)Cc2cccc(OC)c2OC)nc1	25	-16	i	x	5	41	-3	-19
COc1cccc(CN(C)CCCn2ccc(NC(=O)OCc3ccccc3)nc2=O)c1	13	x	x	x	x	-7	2	5
Cc1ccc(CSc2nc3c(c(=O)[nH]c(=O)n3C)n2CCC(C)C)cc1	-15	-10	i	17	-6	39	2	-15
S=c1[nH]nc(Cc2cccs2)n1-c1ccccc1	-7	4	i	6	1	x	2	1
Cc1ccc(CS(=O)Cc2ccc(C(=O)N3CCOCC3)o2)cc1 (configuration not stated)	1	0	i	-16	-7	4	2	3
O=C(Nc1ccc2oc(=O)c(C(=O)O)cc2c1)Oc1ccccc1	-16	x	x	x	x	26	6	-6
CCCCC1C2=C(CCCC2=O)OC2=C1C(=O)CCC2	x	-15	i	-11	-2	6	0	6
COC(=O)CCC(=O)NNC(=O)c1ccc(Cl)cc1Cl	-16	-13	i	-4	7	-5	0	5
Cc1ccnc(NC(=O)c2cc(S(=O)(=O)NCc3ccccc3)ccc2C)c1	16	x	x	-11	x	x	-6	-4
Cc1ccc2nc3c(cc(C(=O)NCc4ccccc4)c(=N)n3CCCn3ccnc3)c(=O)n2c1	-18	x	x	x	x	-14	0	0
Nc1cc(=O)[nH]c(SCC(=O)Nc2ccc(Oc3ccccc3)cc2)n1	-8	21	i	-6	2	11	5	-5
